Tg IFNy HTS: blocks Toxoplasma gondii growth in the presence of IFN-gamma; activity change, negative = inhibition, %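 (about 20 µM by stock and volumes)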; hit rate 3.8% among 69,000; Toxoplasma gondii growth in IFN-gamma-treated host cells; active compounds read low; reference of the scale not given here;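 active means below -70%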;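 further: host cells are HeLa cells infected with Toxoplasma gondii; parasite growth read as luciferase light; one replicate is shown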
Numbers without * were called inactive; i = inactive; & = joins results of further samples. Only part of the results is shown. The share of hits here may be higher or lower than overall.

SMILES	Tg IFNy HTS
CN(Cc1ccc(-n2cccn2)cc1)Cc1ncc[nH]1	8
Nc1n[nH]c(-c2ccc(-c3nc(N)n[nH]3)cc2)n1	-53
COc1ccccc1NC(=O)Cn1c(=O)cc(-c2nc(C)no2)c2ccccc21	44
CC(C)n1nnc(CC(=O)Nc2ncc(Cc3cccc(Cl)c3Cl)s2)n1	-45
CNC(=O)[C@@H]1CC2CN(S(=O)(=O)c3ccc(OC)cc3)CC2N1C (stereo partly specified)	2
CS(=O)(=O)N1CCC(C(=O)N2C3CCC2CC(c2ccc(F)cc2)C3)CC1 (stereo unspecified)	-4
COc1ccc(NS(=O)(=O)c2ccc3[nH]c(=O)ccc3c2)c(OC)c1	i
O=C(c1ccccn1)N1CCC2(CC1)CC(Nc1ncccn1)C2	-5
CCOC(=O)NC(=S)N1CCSCC1	24
CC(C)C(=O)N1C[C@@H]2OCCN(c3cnccn3)[C@H]2C1	58
CCN(CC)c1ncnc2c1cnn2CC(=O)Nc1cc(Cl)ccc1C	182
N#C[C@H]1[C@@H](c2ccccc2C2=CCCC2)[C@@H](CO)N1C(=O)Cc1ccncc1	-27
O=C(NC1CC1)c1nc(C(=O)N2CCN(c3ccccc3Cl)CC2)cs1	-28
COc1cccc(C(=O)Nc2nc(SCc3ccc(Cl)cc3)n[nH]2)c1	63
O=C(COc1nc2ccccc2s1)N1c2ccccc2Sc2ccccc21	0
CC(C)[C@@H]1CC=CC[C@H](C)Oc2ccccc2C(=O)N(C)[C@H](C(C)C)C(=O)N1 (mixture of isomers)	-22
Cc1nn(C)c(C)c1CCC(=O)N(C)Cc1cc(C(C)C)no1	1
O=C(C1CCCN1)N1CCOCCOCCOCC1 (stereo unspecified)	11
Cc1[nH]nc(CCC(=O)N2C[C@H](N(C)C)C[C@H]2CO)c1C	10
Nc1nc2ncc(CNc3ccc(C(=O)N[C@@H](CCC(=O)O)C(=O)O)cc3)nc2c(=O)[nH]1	-53&4

15 compounds from above, arranged by length of the SMILES, low to high.
SMILES	Tg IFNy HTS
CCOC(=O)NC(=S)N1CCSCC1	24
O=C(C1CCCN1)N1CCOCCOCCOCC1 (stereo unspecified)	11
CN(Cc1ccc(-n2cccn2)cc1)Cc1ncc[nH]1	8
Nc1n[nH]c(-c2ccc(-c3nc(N)n[nH]3)cc2)n1	-53
O=C(c1ccccn1)N1CCC2(CC1)CC(Nc1ncccn1)C2	-5
Cc1nn(C)c(C)c1CCC(=O)N(C)Cc1cc(C(C)C)no1	1
CC(C)C(=O)N1C[C@@H]2OCCN(c3cnccn3)[C@H]2C1	58
COc1cccc(C(=O)Nc2nc(SCc3ccc(Cl)cc3)n[nH]2)c1	63
Cc1[nH]nc(CCC(=O)N2C[C@H](N(C)C)C[C@H]2CO)c1C	10
COc1ccc(NS(=O)(=O)c2ccc3[nH]c(=O)ccc3c2)c(OC)c1	i
CNC(=O)[C@@H]1CC2CN(S(=O)(=O)c3ccc(OC)cc3)CC2N1C (stereo partly specified)	2
CS(=O)(=O)N1CCC(C(=O)N2C3CCC2CC(c2ccc(F)cc2)C3)CC1 (stereo unspecified)	-4
N#C[C@H]1[C@@H](c2ccccc2C2=CCCC2)[C@@H](CO)N1C(=O)Cc1ccncc1	-27
CC(C)[C@@H]1CC=CC[C@H](C)Oc2ccccc2C(=O)N(C)[C@H](C(C)C)C(=O)N1 (mixture of isomers)	-22
Nc1nc2ncc(CNc3ccc(C(=O)N[C@@H](CCC(=O)O)C(=O)O)cc3)nc2c(=O)[nH]1	-53&4

3 structures out of the list, sorted by length of the SMILES, smallest number first.
SMILES	Tg IFNy HTS
CC(C)C(=O)N1C[C@@H]2OCCN(c3cnccn3)[C@H]2C1	58
Cc1[nH]nc(CCC(=O)N2C[C@H](N(C)C)C[C@H]2CO)c1C	10
Nc1nc2ncc(CNc3ccc(C(=O)N[C@@H](CCC(=O)O)C(=O)O)cc3)nc2c(=O)[nH]1	-53&4

More records follow.
SMILES	Tg IFNy HTS
CCCc1ccc(C2CC(=O)Nc3cc4c(cc32)OCO4)o1 (stereo unspecified)	-88*
CS(=O)(=O)N(CC(=O)NCCc1cnc[nH]1)c1cccc(F)c1	-2
COc1ccc2[nH]c(C(=O)N3CCc4c(nc[nH]c4=O)C3)c(C)c2c1	4
O=C(NCCc1csc(-c2ccc(Cl)cc2)n1)C(=O)Nc1cccc(F)c1	-39
Nc1nc(CCNC(=O)c2cn(CCC3CCCCC3)nn2)cs1	-18
Fc1cnc(N2CCC3(COCc4cnc(NCC5CC5)nc43)C2)nc1 (stereo unspecified)	-31
O=C(COc1ccccc1)N1CCC2(CC1)CNS(=O)(=O)c1ccccc1OC2	-35
O=C1CSC2(N1)C1CC3CC(C1)CC2C3 (stereo unspecified)	51
COc1ccccc1N(Cc1nc(-c2ccc(C)cc2)oc1C)S(=O)(=O)c1cccs1	-48
Cc1nn(CC(=O)N2CCCCCC2)c(=O)c2nc(-c3ccccc3)sc12	-64
Cc1noc(C)c1NC(=O)Nc1ccc2c(c1)C(=O)N([C@@H](C)CO)C[C@H](C)[C@H](CN(C)S(=O)(=O)c1ccc(F)cc1)O2	6
CC(=O)Nc1ccc(C(=O)NC(C)(C)C)cc1	27
O=C(c1ccc(N2CCC(CO)C2)nc1)N1CCC(CCc2ccccc2)CC1 (stereo unspecified)	-13
O=C(C1CCC1)N1C[C@@H]2[C@H](c3ccccc31)[C@H](CO)N2Cc1ccccc1	13
COc1cccc(C2(NC(=O)c3cccc(N4CCCC4=O)c3)CCCC2)c1	1
O=C(O)CC1CCC2(CC1)CCN(C(=O)c1ccc(-n3ccnc3)cc1)CC2	1
COc1ccc(Nc2nc(-c3nnc(-c4cccc(Cl)c4)o3)nc3ccccc23)c(OC)c1	318
CCCN(C)C[C@@H]1OCCCC[C@@H](C)Oc2ccc(NC(=O)CCCN(C)C)cc2C(=O)N([C@H](C)CO)C[C@@H]1C	-39
O=C(NCCC(c1ccccc1)c1ccco1)c1cccs1 (stereo unspecified)	57
Cc1nc2c(n1C)CN(C(=O)c1ccc(Cl)s1)CC2	24
CO[C@H]1CC[C@H]2CCOc3c(C#N)cccc3C(=O)N(C)CCCC(=O)N(C)C[C@@H]1O2	-49
C=CCN(C)NC(=S)Nc1ccccc1	3
C[C@@]1(c2cc(-c3cncnc3)c(F)cc2F)CCSC(N)=N1	20
COC(=O)c1c(NCCc2ccccc2)c2cccc(Cl)c2[nH]c1=O	-54
NC(=O)COc1cccc(C(=O)N2C[C@H]3CC=CC[C@H]3C2)c1	-6
CNC(=O)[C@H]1CC2CN(C(=O)Cc3cccs3)CC2N1C(C)=O (stereo partly specified)	-22
Cc1ccc(NC(=O)Cn2c(=O)ccc3cc(S(=O)(=O)N4CCC(C)CC4)ccc32)cc1C	-37
CC(=O)c1cc(C(=O)N2CCN(c3cc(C)nc(C)n3)CC2)cs1	-67
Cc1nn(Cc2nnc(-c3cccs3)o2)c(C)c1Br	-2
O=C(NCC(c1ccccc1)N1CCCCCC1)c1ncn[nH]1 (stereo unspecified)	-43
CO[C@@H]1CN(C)C(=O)c2ccc(NS(=O)(=O)c3ccc(C)cc3)cc2OC[C@H](C)N(C)C[C@@H]1C	48
CC(C)N1CCC(N2CCN(Cc3ccc(-n4cccn4)cc3)CC2CCO)CC1 (stereo unspecified)	3
COc1ccc2c3c(n(C)c2c1)[C@H](CO)N(C(=O)c1ccc(F)cc1)CC31CN(C(=O)Nc2ccc(F)cc2)C1	89
COc1ccccc1C1CCCN1CC(=O)Nc1nonc1C (stereo unspecified)	2
Cn1c(=O)c(-c2nc(-c3ccc(Cl)cc3)no2)c(O)c2ccccc21	81
Cc1cc(CN(C)C(=O)c2cccc(NCc3ccc(C)s3)c2)on1	-25
CC(CCc1ccccc1)NC(=O)CCC1Nc2c3ccccc3nc(=S)n2C1=O (stereo unspecified)	12
O=C1c2ccccc2S(=O)(=O)N1Cc1csc(-c2ccc(Cl)cc2)n1	7
O=C(CN1C(=O)CCc2cc(Br)ccc21)Nc1ccc(F)cc1	12
C[C@@H]1CN([C@H](C)CO)C(=O)c2ccccc2-c2ccccc2CO[C@H]1CN(C)C(=O)Nc1ccc(-c2ccccc2)cc1	-76*
CNC(=O)[C@H]1CC2CN(Cc3ccc4c(c3)OCO4)CC2N1C(C)=O (stereo partly specified)	-6
Cn1cc(-c2[nH]c3cc(NC(=O)[C@H](N)C4CCCCC4)cc4c3c2C=NNC4=O)cn1	-78*
COc1cccc(OC)c1CN1CCC(Cc2cccc(-c3ccncc3)c2)(C(N)=O)C1 (stereo unspecified)	-12
CCN(C[C@H]1[C@@H](c2ccccc2)[C@H](CO)N1C(=O)COC)S(C)(=O)=O	-7
Cc1cc(N2CCN(C(=O)c3cc(CC(C)C)nn3C)CC2)nc(N)n1	-16
COc1ccccc1CN1CCNC(=O)C1CC(=O)N1CCCN(c2ncccn2)CC1 (stereo unspecified)	-43
COc1ccc(C)cc1S(=O)(=O)Nc1ccc2c(c1)nc(C)n2CCO	46
O=c1[nH]nc(CCn2ccnc2-c2ccncc2)[nH]1	58
O=C1NC(=O)C(Cc2ccccc2F)(C2CCNCC2)N1 (stereo unspecified)	-3
CC1(C)C(C=C(Cl)Cl)C1C(=O)N1CCN(Cc2ccccc2)CC1 (stereo unspecified)	23
Cn1nc(-c2cccnc2)cc1CN1CCN(C(=O)c2cc3c(s2)CCCC3)CC1	-1
OCCCc1cc(-c2ccc(Cl)cc2)n[nH]1	154
CCOCC1CN(Cc2nccs2)Cc2cn(CC)nc21 (stereo unspecified)	-6
CCCC(=O)Nc1ccc2c(c1)OC[C@@H](C)N(S(=O)(=O)c1cn(C)cn1)C[C@@H](C)[C@H](OC)CN(C)C2=O	364
CC(=O)c1c(C)nn(CC(=O)N(C)C(C)c2cccs2)c1C (stereo unspecified)	-4
CCc1csc(CNC(=O)C(C)n2cnc3ccccc32)n1 (stereo unspecified)	18
O=C(O)CSCC(=O)Nc1ccc(-c2csnn2)cc1	-38
CCSC(SCC)[C@H](O)[C@@H](O)[C@H](O)[C@H](O)CO	5
COc1ccc(C(=O)/C=C/c2ccc(OC(=O)c3cc(OC)c(OC)c(OC)c3)cc2)cc1	-25
CO[C@@H](CN(C)Cc1cc(F)ccc1F)[C@H](C)CN(C(=O)Nc1ccc(C(F)(F)F)cc1)[C@H](C)CO	-29

The listing continues:
SMILES	Tg IFNy HTS
CCCNC(=O)N(C)C[C@H]1Oc2ncc(C#CC3CCCCC3)cc2C(=O)N([C@@H](C)CO)C[C@H]1C	-56
CCc1ncc(C(=O)N2CCc3c(nc(-c4ccccc4)[nH]c3=O)C2)cn1	4
C=CCn1c(=O)c(C(=O)NCc2cccc(OC)c2)c(O)c2ccccc21	290
O=C(NCc1ccccc1)c1c(O)c2ccccc2[nH]c1=O	1
O=C(Nc1cc(F)ccc1F)N1CCC2(CC1)Nc1cc(F)ccc1-n1cccc12	349
CCCC(=O)N(Cc1ccccc1)Cc1nc(N(C)C)ncc1-c1cc(C)no1	4
CCn1c(C2CCN(C(=O)Cc3nc4ccccc4[nH]3)CC2)nn(C)c1=O	1
O=S(=O)(c1cccc(F)c1)N1CC[C@@H]2[C@H](CO)Nc3ccc(C#Cc4ccccc4F)cc3[C@@H]21	9
COc1cccc([C@@H](C)NC(=O)CCC(=O)NC2CCCC2)c1	4
O=C(Cn1ncc2c(N3CCOCC3)ncnc21)NCc1ccc(Br)cc1	-34
CC(=O)OC[C@@H](OC(C)=O)[C@@H](OC(C)=O)C1OC(=O)C2N(C(C)=O)C1SC2(C)C (stereo partly specified)	-20
O=C(Nc1cccc(C(F)(F)F)c1)c1c(O)c2ccccc2[nH]c1=O	14
CCSc1ncc(-c2nccn2-c2ccc(-c3n[nH]c(C)n3)cc2)cn1	5
Cc1cc(Cl)ccc1OCC(=O)NCCOc1nc(N)nc(N(C)C)n1	-38
O=C(C[C@H]1CC[C@@H]2NC[C@H](O)COC[C@H]2O1)NC1Cc2ccccc2C1	7
CCC(=O)N1C[C@H](O)COC[C@H]2O[C@@H](CC(=O)NCc3ccc(Oc4ccccc4)cc3)CC[C@@H]21	4
CC(=O)N(Cc1nc(-c2ccccc2)no1)C(C)C	14
CN(Cc1cc2n(n1)CCCNC2)Cc1nc(-c2ccccn2)no1	7
CN(Cc1ccc2ncccc2c1)C(=O)C1CN(S(=O)(=O)c2ccc(F)cc2)C1	4
CC(C)C(=O)Nc1ccc2c(c1)C(=O)N(C)[C@H]1CC[C@H](CC(=O)NCCc3ccccc3)O[C@@H]1CO2	7
Cc1ccc(NC(=O)CS(=O)CC(=O)Nc2ccc3c(c2)CCC3)cc1Cl (stereo unspecified)	-88*
CC(=O)N1CCC(C(=O)NCc2ccccc2)(N(C(=O)c2ccc(Br)cc2)c2ccc(C)cc2)CC1	63
COc1ccc(Cl)cc1S(=O)(=O)N1CCC(c2nc(C(=O)N(C)C)c(C)o2)CC1	-56
CC(=O)Nc1ccc(Cl)c(C(=O)N2CC=C(c3ccc(F)cc3)CC2)c1	-44
N#C[C@@H]1[C@H](c2ccccc2-c2cccc(F)c2)[C@H](CO)N1C(=O)C1CC1	6
COCCCNC(=O)Cn1ncc2c(N3CCC(C)CC3)ncnc21	61
CN(C)Cc1ccc(-c2cccc(CO)c2)cc1	6
COC(=O)c1ccc(OC2OCCOC2Oc2ccc(C(=O)OC)cc2)cc1 (stereo unspecified)	9
CN(C)C(=O)N1CCC2(CC1)CC(C(=O)N1CCOCC1)c1ccccc12 (stereo unspecified)	23
CC1(C)CC1C(=O)N/C(=C\CCCCSCC(N)C(=O)O)C(=O)O (stereo unspecified)	9
CC(=O)N1[C@H](CNC(=O)C2CC2)[C@H](c2ccc(-c3ccccc3)cc2)[C@@H]1CO	-10
Cc1ccc2c(c1)NC1(CCN(C(=O)CCC3CCCC3)CC1)c1cccn1-2	29
CCc1cc(NCc2cccs2)n2nc3nc(C)cc(C)c3c2n1	-52
N=c1c2cnn(-c3ccccc3)c2ncn1NC(=S)Nc1ccc(Cl)cc1Cl	23
O=C(COc1ccc(Cl)cc1)Nc1c[nH]c(=O)[nH]c1=O	-106*
COCCNC(=O)C[C@@H]1CC[C@H]2[C@H](COc3ccc(NS(=O)(=O)c4ccc(Cl)cc4)cc3C(=O)N2C)O1	-38
COc1ccc(-c2ccc([C@H]3[C@H](C#N)N(C(=O)NC(C)C)[C@H]3CO)cc2)cc1	-55
CCCN1CCCC(C2C(=O)Nc3ccccc32)C1 (stereo unspecified)	24
CC(C)(CN1CCCC1)CN1CCN(Cc2cccc(F)c2)CC1	-7
CN(Cc1cc(-c2ccncc2)no1)Cc1cnc(-c2ccccc2)s1	-2
O=C(Cc1ccco1)N1C[C@H]2COC[C@@]2(COc2ccccn2)C1	72
